GIV-Gai inh – GIV-Galpha-i interaction inhibition | 210,000 compounds, 0.42% hits | Galpha-i3/FITC-GIV peptide fluorescence polarization, 90 min; stronger effect = lower value; scaled: aluminum fluoride 0%, vehicle 100% | percent of control (FP), % (no concentration beside the values);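 active means replicate mean at 85% of control or lower, very high polarization wells dropped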;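 further: wells of about 15 µL received 100 nL stock; the first replicate is given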
Target sequence (P08753 whole entry, looked up): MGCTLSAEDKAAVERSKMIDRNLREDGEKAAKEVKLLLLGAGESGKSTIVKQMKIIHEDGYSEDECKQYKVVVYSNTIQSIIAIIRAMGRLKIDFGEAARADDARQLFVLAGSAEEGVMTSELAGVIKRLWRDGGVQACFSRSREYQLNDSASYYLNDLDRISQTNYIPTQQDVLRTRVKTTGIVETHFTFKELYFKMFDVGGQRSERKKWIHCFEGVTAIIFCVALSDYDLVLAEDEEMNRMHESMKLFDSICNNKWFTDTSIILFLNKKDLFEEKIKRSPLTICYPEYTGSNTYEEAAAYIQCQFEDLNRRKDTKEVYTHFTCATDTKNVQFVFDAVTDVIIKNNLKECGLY
Sa growth inh – blocks Staphylococcus aureus growth; S. aureus RN4220 growth, OD600, 20 h, 42 °C; stronger effect = lower value; relative growth, % (no concentration beside the values); 170,000 compounds, 0.53% hits;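 active means growth at 42 °C up to 50% and 20 or more points under that at 30 °C, or under 10% at both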;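 further: 300 nL library stock went into each well; scaled to the means of positive and negative controls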
HCMV UL50-53 inh – inhibitors of HCMV UL50-UL53 nuclear egress complex interaction | HTRF UL50-UL53 interaction, normalized percent inhibition | inhibition, % (no concentration beside the values) | 190,000 compounds, 0.15% hits;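 active means both replicates at 50% or more, plus weaker picks with an unusually low signal ratio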;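 further: stock transfer was 100 nL into about 20 µL; 0% = negative control wells and 100% = wells with untagged competitor protein; inactives centre near -12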
Sa growth inh second temp – further read-out of Sa growth inh, marked with its call; relative growth, %; measured here: growth at 30 °C;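 optical density after 20 h as mean of two plates; 100% = untreated growth and lower means inhibition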
* marks the source's active call; other numbers are inactive results; . = no result given.

Key to letters: A = GIV-Gai inh; B = Sa growth inh; C = Sa growth inh second temp; D = HCMV UL50-53 inh
CCc1ccc(NC(=O)Cn2c(=O)n(Cc3nc(-c4ccccc4)no3)c(=O)c3cc4c(cc32)OCO4)cc1
  A: 97.1	B: 100.5	C: 93.1	D: .

O=C(CC1C(=O)N(Cc2ccc(F)cc2)C(=S)N1Cc1ccco1)Nc1ccc(Cl)cc1 (stereo unspecified)
  A: 106.4	B: 81.8	C: 88.4	D: 4.5

COc1ccccc1C(=O)Nc1ccc(CN2CCCCC2)cc1
  A: 106.7	B: 96.1	C: 97.5	D: 17.8

COc1cccc(NC(=S)N=S(C)(=O)c2ccccc2)c1 (stereo unspecified)
  A: 103.3	B: 105.8	C: 80.8	D: -39.3

O=C(Cn1ccn(-c2ccc(F)c(F)c2)c(=O)c1=O)Nc1ccccc1F
  A: 103.0	B: 113.0	C: 102.0	D: -15.6

Cc1ccc2c(CSCc3c(C)noc3C)cc(=O)oc2c1
  A: .	B: 97.7	C: 101.3	D: 15.7

CC(C)(CC(=O)O)CC(=O)N1CCN(Cc2c(F)cccc2Cl)CC1
  A: 100.4	B: 107.3	C: 89.6	D: -12.6

O=S(=O)(c1ccc(F)cc1F)n1nccc1-c1csc(-c2ccccc2)n1
  A: 102.1	B: 103.5	C: 95.6	D: 4.8

COc1ccc(C2C(C(=O)Nc3cccnc3)=C(C)Nc3nc(-c4ccc(OC)c(OC)c4)nn32)cc1 (stereo unspecified)
  A: 102.3	B: 99.4	C: 91.8	D: 22.1

C=CCn1c(=O)c2ccccc2n2c(SCC(=O)c3ccc(Cl)cc3)nnc12
  A: .	B: 94.2	C: 97.0	D: -27.5

C[C@H](NC(=O)OC(C)(C)C)c1nnc(SCc2c(F)cccc2Cl)o1
  A: 97.5	B: 105.3	C: 91.8	D: 0.9

Cc1noc(C)c1CON=c1c(C)nc2ccccc2nc1C
  A: .	B: 88.7	C: 86.6	D: -25.2

O=C(COc1ccc(C2=NN(C(=O)c3cccs3)C(c3ccco3)C2)cc1)N1CCCCC1 (stereo unspecified)
  A: 108.6	B: 102.9	C: 91.8	D: -19.5

O=S(=O)(Cc1ccccc1)N1CCN(CCO)CC1
  A: .	B: 88.3	C: 93.6	D: -6.1

Cn1c(=O)cc(SCC(=O)NCCCN2CCN(c3ccccc3F)CC2)c2cc(Cl)ccc21
  A: 103.4	B: 109.2	C: 94.8	D: 0.8

COc1nnc(-c2ccc(C)c(S(=O)(=O)N(C)C)c2)c2ccccc12
  A: 105.9	B: 111.7	C: 97.4	D: .

COc1ccc(N2CCN(C(C)C(N)=O)CC2)cc1 (stereo unspecified)
  A: .	B: 87.1	C: 92.8	D: -14.1

O=C(CN1CCCCCC1)Nc1ccc2c(c1)OC(F)(F)O2
  A: .	B: 94.0	C: 90.7	D: -0.1

O=C(Cn1c(=O)n(Cc2ccco2)c(=O)c2sc3ccccc3c21)Nc1ccc(F)cc1F
  A: 103.1	B: 85.1	C: 85.5	D: -29.8

Cc1cccc(-n2c(C)cc(CNC(=O)NC3CCCCC3)c2C)c1
  A: 106.8	B: .	C: .	D: -29.0

CC(=O)Nc1ccc(C)cc1-c1nnc(SCc2cccc(Br)c2)[nH]c1=O
  A: 102.5	B: .	C: .	D: -12.8

O=C(/C=N/O)Nc1ccc2c(c1)OCO2
  A: .	B: 84.3	C: 70.3	D: -40.1

CCCCCSc1ncnc2nc[nH]c12
  A: 103.8	B: 84.0	C: 71.1	D: -36.4

COC(CNC(=O)c1oc2ccc3c(c2c1C)C=CC(C)(C)O3)OC
  A: 104.4	B: 100.2	C: 101.5	D: .

CCC1CCCCN1c1cc(=O)n2ccccc2n1 (stereo unspecified)
  A: .	B: 103.8	C: 82.7	D: -12.5

Cc1cc(C)n(-c2nc3ccccc3nc2N2CCN(c3cccc(C(F)(F)F)c3)CC2)n1
  A: 103.7	B: 114.2	C: 82.2	D: -6.3

Cc1ccc(S(=O)(=O)C(CC(=O)c2ccco2)c2ccc(Cl)cc2)cc1 (stereo unspecified)
  A: .	B: 100.0	C: 83.4	D: -10.4

O=C(Nc1nccs1)c1ccc(-c2ccccc2C(F)(F)F)o1
  A: 102.3	B: 69.3	C: 24.6	D: -10.0

CC12CC3CC(C1)CC(CC(=O)O)(C3)C2
  A: 106.7	B: 100.8	C: 85.5	D: -14.5

COC(=O)c1ccc([C@@H]2Nc3c(cccc3C(F)(F)F)[C@@H]3C=CC[C@@H]32)cc1
  A: 106.3	B: 89.0	C: 88.8	D: 13.0

Limited to GIV-Gai inh (4 entries from above):
smiles	GIV-Gai inh
CCCCCSc1ncnc2nc[nH]c12	103.8
O=C(Nc1nccs1)c1ccc(-c2ccccc2C(F)(F)F)o1	102.3
Cc1cc(C)n(-c2nc3ccccc3nc2N2CCN(c3cccc(C(F)(F)F)c3)CC2)n1	103.7
CC(=O)Nc1ccc(C)cc1-c1nnc(SCc2cccc(Br)c2)[nH]c1=O	102.5

(further entries)
Key to letters: A = GIV-Gai inh; B = Sa growth inh; C = Sa growth inh second temp; D = HCMV UL50-53 inh
CCOc1ccc(-c2cnc(N)s2)cc1
  A: .	B: 107.1	C: 96.0	D: -9.5

O=C(N1CCOCC1)N1CCN(c2ccccc2F)CC1
  A: 99.5	B: 120.1	C: 80.1	D: .

COc1cccc(NC(=O)COc2ccc(C(=O)N3CCN(C)CC3)cc2)c1
  A: .	B: 72.5	C: 89.1	D: -22.4

CC(C)CCn1cnc2c1c(=O)n(C)c(=O)n2C
  A: 99.0	B: 91.4	C: 87.5	D: 1.3

CN(C1CCCCC1)S(C)(=O)=O
  A: 96.1	B: 94.3	C: 86.9	D: -9.8

CCCc1nc2sc3c(Cl)ncnc3c2c2c1CCCC2
  A: 109.2	B: 113.8	C: 75.7	D: .

Cc1ccc(NC(=O)Cn2nc3c(Oc4ccccc4C)nc4ccccc4n3c2=O)c(Cl)c1
  A: 103.9	B: .	C: .	D: 3.9

CCC(Cc1ccccc1)NC(=O)C(Cc1ccccc1)n1cccc1 (stereo unspecified)
  A: 102.0	B: 106.7	C: 90.0	D: 3.1

COc1cc(C2SCC(=O)N2c2c(C)n(C)n(-c3ccccc3)c2=O)ccc1O (stereo unspecified)
  A: 103.5	B: .	C: .	D: -3.0

O=C(O)CSc1ccnc2cc(Cl)ccc12
  A: 97.4	B: 115.8	C: 87.5	D: -7.4

O=C(NNc1cc(C(F)(F)F)ccc1Cl)c1ccc(=O)[nH]c1
  A: .	B: 75.8	C: 89.0	D: -2.8

Cc1ccc2c(cnn2C(=O)CCCC(=O)N2CCN(c3cccc(Cl)c3)CC2)c1
  A: 105.1	B: 92.2	C: 88.1	D: .

Cc1cc(C(F)(F)F)c(C#N)c(SCC(=O)c2ccc[nH]2)n1
  A: .	B: 82.1	C: 91.1	D: -40.8

Cc1cccc2nc(Cn3c(=O)n(-c4ccccc4)c(=O)c4c5c(sc43)CCC5)cc(=O)n12
  A: 101.5	B: 108.5	C: 95.0	D: -28.6

Cc1ccc(-n2c(-c3ccco3)nc3c(cnn3-c3ccc(C)cc3)c2=O)cc1
  A: 102.4	B: 92.4	C: 87.6	D: -9.2

Cc1ccc(-c2nn(-c3ccc(C)cc3)c3c2cnc2c(F)cccc23)cc1
  A: 98.6	B: 77.8	C: 83.3	D: .

Cc1ccc(CNC(=O)c2ccc(-n3nnc4cccnc43)cc2)cc1
  A: 108.0	B: .	C: .	D: -21.8

O=C(NC1CCCCCC1)C1CCN(S(=O)(=O)c2cccc3nonc23)CC1
  A: 102.4	B: 94.1	C: 88.2	D: -43.4

O=C(CC1CCN(C(=O)NC2CCCCC2)CC1)NCCCN1CCC(N2CCCCC2)CC1
  A: 97.9	B: .	C: .	D: -30.4

Cc1ccc(-c2nnc(Nc3cccc(Cl)c3)c3ccccc23)cc1S(=O)(=O)N1CCN(C)CC1
  A: 107.6	B: 101.0	C: 91.6	D: -19.7

CCCCc1c(O)nc(Nc2nc(C)c3cc(C)c(C)cc3n2)[nH]c1=O
  A: 103.3	B: 121.2	C: 65.9	D: -5.8

CC(C)Cn1c(=O)c2ccccc2n2c(CCC(=O)Nc3ccccc3)nnc12
  A: 105.8	B: 94.9	C: 97.6	D: 0.1

CN(CCc1ccccn1)Cc1ccccc1F
  A: 108.8	B: 81.2	C: 91.6	D: 0.8

COc1ccc(-c2cn3c(n2)sc2cc(C(=O)NCCc4ccc(OC)cc4OC)ccc23)cc1
  A: 103.7	B: 98.6	C: 90.2	D: .

O=C(Cn1ccn2nc(-c3ccc4c(c3)OCO4)cc2c1=O)NCCCc1ccccc1
  A: 98.3	B: .	C: .	D: -19.4

O=C(OCCN1CCOCC1)c1ccc(O)cc1
  A: 97.9	B: 91.8	C: 84.7	D: .

O=C(Oc1ccccc1F)c1cc(-c2ccc3c(c2)OCCO3)on1
  A: 111.1	B: .	C: .	D: -10.4

N#Cc1nc(-c2ccccc2F)oc1NCCCN1CCOCC1
  A: 108.9	B: 97.6	C: 89.4	D: -3.6

COc1ccc(OC)c(S(=O)(=O)N2CC(C)N(S(=O)(=O)c3cc(OC)ccc3OC)CC2C)c1 (stereo unspecified)
  A: 98.6	B: 101.9	C: 87.4	D: -16.1

C=CCNc1nc(NCCN2CCOCC2)nc(OC)n1
  A: 102.2	B: 115.1	C: 102.7	D: 4.8

COc1cc(C(=O)N2CCc3ccccc3C2)cc(NC(=O)c2ccco2)c1OC
  A: .	B: 77.5	C: 99.5	D: -0.6

COc1ccc2nc3oc(C(=O)N4CCN(c5cccc(C(F)(F)F)c5)CC4)cc3cc2c1
  A: 106.8	B: 79.9	C: 91.4	D: .

CC1CCN(C(=O)COc2ncnc3ccccc23)CC1
  A: .	B: 90.7	C: 95.9	D: -3.3

CCO/C=C1\C(=O)N(c2ccccc2)C(=O)c2ccccc21
  A: .	B: 113.5	C: 77.0	D: -38.0

CSc1nnc(-c2nnc(SC)n2-c2ccccc2)n1-c1ccccc1
  A: 102.0	B: 94.0	C: 98.3	D: -9.1

Cc1ccc(C)c(S(=O)(=O)NCCCn2ccnc2)c1
  A: 97.5	B: 102.1	C: 80.7	D: .

NCCCCN=C(N)N
  A: 102.1	B: .	C: .	D: -14.3

CCc1ccc2c(C)nc(NC3=NC(C)(C)C=C(C)N3)nc2c1
  A: .	B: 68.2	C: 63.3	D: 48.6*

COc1ccc(-c2cc3nc(Cc4ccccc4)cc(=O)n3[nH]2)cc1
  A: 104.9	B: 108.7	C: 89.1	D: -22.4

CC(C)(CC(=O)O)CC(=O)N1CCN(c2nc(-c3ccccc3)ns2)CC1
  A: 103.6	B: 98.7	C: 92.1	D: -23.9

CC1(C(=O)NC2CCCCC2)Cn2c(cc3ccccc32)C(=O)N1Cc1ccccc1Cl (stereo unspecified)
  A: 106.6	B: .	C: .	D: -1.0

O=C(Nc1cccc(-n2cccc2)c1)c1cccc2c1OCCCO2
  A: 110.1	B: 87.6	C: 90.0	D: 1.5

COc1ccccc1N1CCN(C(=O)c2cc(-c3ccc(C)cc3)on2)CC1
  A: 106.2	B: .	C: .	D: 1.7

COc1cc(SC)ccc1C(=O)NCc1ccccc1
  A: 103.4	B: 103.5	C: 88.0	D: -17.9

O=C(NC1CC1)c1ccc(/C=C2/Oc3ccccc3N(Cc3ccccc3F)C2=O)cc1
  A: 104.2	B: 97.4	C: 90.7	D: .

Cn1c(=NC(=O)CCOc2ccccc2)sc2cc(Br)ccc21
  A: 103.8	B: 95.7	C: 78.8	D: .

CN1/C(=C\C=N\NC(=O)c2cccnc2)C(C)(C)c2ccccc21
  A: .	B: 123.5	C: 84.5	D: -33.1

CCOc1cc(C2C3=C(CC(c4ccc(O)c(OC)c4)CC3=O)Nc3onc(C)c32)ccc1O (stereo unspecified)
  A: 108.1	B: .	C: .	D: -16.7

O=C(Nc1onc2c1CCCC2)c1ccc(Cl)cc1
  A: 103.0	B: 103.4	C: 67.1	D: -29.0

O=C(CSc1nc2sc3c(c2c(=O)n1Cc1ccco1)CCC3)Nc1nccs1
  A: 108.5	B: 106.3	C: 103.3	D: -5.7

Following part:
Key to letters: A = GIV-Gai inh; B = Sa growth inh; C = Sa growth inh second temp; D = HCMV UL50-53 inh
O=C(Cn1cc(C(=O)c2ccccc2)c(=O)c2ccccc21)Nc1ccccc1
  A: 101.6	B: .	C: .	D: -6.0

CC(C)CC(=O)Nc1nc(-c2ccccc2)cc(-c2ccccc2)n1
  A: 98.1	B: .	C: .	D: 6.9

CC(C)n1cnc2cc(NCc3ccccc3O)ccc21
  A: 108.8	B: 91.8	C: 91.6	D: .

OC[C@H]1O[C@@H](n2cnc3cncnc32)[C@H](O)[C@@H]1O
  A: 106.1	B: .	C: .	D: -19.0

COc1cc(C(=O)Nc2c(C(=O)Nc3ccccc3F)oc3ccccc23)cc(OC)c1OC
  A: 103.1	B: 100.0	C: 87.7	D: -15.9

O=C(Nc1ccc(S(=O)(=O)N2CCC(c3nc4ccccc4s3)CC2)cc1)c1ccccc1F
  A: 98.5	B: 93.4	C: 73.4	D: -15.4

O=C1NC(=O)/C(=C\c2cccc(C(F)(F)F)c2)S1
  A: 114.0	B: 7.3*	C: -0.2*	D: -2.6

CCn1cc(S(=O)(=O)c2cccc(C)c2)c(=O)c2cc(F)c(N3CCCC(C)C3)cc21 (stereo unspecified)
  A: 105.6	B: 96.3	C: 90.8	D: .

Compound activity as filed in PubChem.
